Screens deposited in PubChem BioAssay by Johns Hopkins Ion Channel Center.
KCNQ2 enhance: potentiators of rat KCNQ2 potassium channel. CHO-K1 KCNQ2, FluxOR thallium flux fluorescence; active compounds read high. 0.54% of 310,000 active. B-score at 10 µM. Potassium voltage-gated channel subfamily KQT member 2 (Rattus norvegicus), O88943. AID 2239, 2010;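 active means fluorescence ratio B-score at least 3 SD of library B-scores, with initial fluorescence B-score within 3 SD, cut at about 5.3 in these data; same plate scores as AID 2156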;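 further: B-score of peak minus minimum over baseline fluorescence ratio after K+ and Tl+ stimulus; positive B-score means potentiation of KCNQ2 with more thallium influx and brighter signal; only the inactives scoring about 0 or higher are listed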
Target sequence (O88943 whole entry, looked up): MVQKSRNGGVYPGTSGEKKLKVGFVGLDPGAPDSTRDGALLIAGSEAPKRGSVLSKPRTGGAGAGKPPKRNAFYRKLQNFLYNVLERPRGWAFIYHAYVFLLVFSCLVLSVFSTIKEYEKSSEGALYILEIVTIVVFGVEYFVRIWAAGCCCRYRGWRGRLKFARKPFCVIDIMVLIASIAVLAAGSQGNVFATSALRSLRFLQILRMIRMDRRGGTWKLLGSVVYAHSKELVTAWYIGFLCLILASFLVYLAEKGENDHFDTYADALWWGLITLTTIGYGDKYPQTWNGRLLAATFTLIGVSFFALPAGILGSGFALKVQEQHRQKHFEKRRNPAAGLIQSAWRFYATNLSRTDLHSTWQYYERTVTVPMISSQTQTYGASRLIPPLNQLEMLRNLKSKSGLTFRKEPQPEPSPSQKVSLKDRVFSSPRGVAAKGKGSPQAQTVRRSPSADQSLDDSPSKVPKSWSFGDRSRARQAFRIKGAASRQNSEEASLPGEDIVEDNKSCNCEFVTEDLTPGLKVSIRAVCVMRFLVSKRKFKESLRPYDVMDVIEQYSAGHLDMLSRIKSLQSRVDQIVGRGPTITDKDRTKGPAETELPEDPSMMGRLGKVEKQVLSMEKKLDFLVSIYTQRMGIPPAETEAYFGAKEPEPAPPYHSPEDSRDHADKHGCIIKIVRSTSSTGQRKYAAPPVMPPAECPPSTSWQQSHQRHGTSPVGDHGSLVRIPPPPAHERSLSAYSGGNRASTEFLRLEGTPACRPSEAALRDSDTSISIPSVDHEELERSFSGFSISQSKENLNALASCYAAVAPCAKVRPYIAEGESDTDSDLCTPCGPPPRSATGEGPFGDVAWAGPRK
KCNQ2 enhance baseline: second read-out of KCNQ2 enhance, no call of its own (marks repeat the call); B-score; compound at 10 µM; measured here: initial fluorescence intensity artifact check;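 brightness before thallium and not channel activity; 0 = typical well and far values either way flag optical interference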
* marks the source's active call; other numbers are inactive results. A portion of the library. The share of hits here may be higher or lower than overall.

SMILES	KCNQ2 enhance	KCNQ2 enhance baseline
Cc1cccc(C(=O)NCC(=O)NCC2COc3ccccc3O2)c1 (stereo not given)	0.22	0.55
CC(=O)OCCCNc1cc(Sc2ccc(C)cc2)c2nonc2c1[N+](=O)[O-]	0.42	-2.1
O=C(O)c1cc(-c2ccc(N3CCOCC3)cc2)nn1-c1ccc(F)cc1	0.7	-0.4
COc1cc(C(C(=O)NCC2CCCO2)N(C(=O)Cn2nnc3ccccc32)c2ccc(OC)c(OC)c2)ccc1O (stereo not given)	0.07	1.4
Cn1c(SCC(=O)c2ccc3c(c2)OCCO3)nnc1C(F)(F)F	1.7	0.89
Cc1ccc(N/N=C2/CCCNC2=O)cc1	0.62	-0.68
CN(C)C(=O)CSc1nnc(Cc2ccccc2)n1Cc1ccco1	0.02	1.2
Cn1c(=O)c2sccc2n(Cc2cccc(Br)c2)c1=O	0.77	1.5
CN(NC(=O)c1ccc(Cl)cc1)c1cccc(Cl)n1	4.7	-0.66
CCOc1ccc(CNC(=O)NS(=O)(=O)c2ccc(OC)cc2)cc1	0.51	0.56
CCN(CC)c1cc(C)c2cc(NC(=O)CNC(C)=O)ccc2n1	0.09	-0.77
Cn1nnnc1SCC(=O)Nc1ccc2c(c1)OCO2	1.5	-0.21
O=C(O)c1ccc(S(=O)(=O)NC2CCCc3ccccc32)cc1 (stereo not given)	0.67	0.45
COc1ccccc1CNC(=O)Cn1nnnc1CN(C)C(C)C	0.02	-0.36
CCNC(=S)Nc1ccc(NC(=O)c2ccccc2O)cc1	0.35	-1.1
O=C(NCCOc1ccccc1Cl)c1ncn[nH]1	1	0.26
COc1ccccc1/C=C/CN1CCC(Oc2cc(C(=O)NC3CC3)ccc2OC)CC1	0.8	-2.3
COc1ccc(NC(=O)CCOc2ccccc2)c(OC)c1	1.8	0.08
COc1ccc(-c2nnc3ccc(SC(C(C)=O)C(C)=O)nn23)cc1OC	1.1	0.08
C/C(=N\NC(=O)c1ccc([N+](=O)[O-])c(C)c1)c1ccccc1Cl	0.68	0.25
CC(C)NC(=O)c1ccc(COCC(F)(F)C(F)F)cc1	0.4	-1.2
CCN(CC)CCNC(=O)C1CCCCN1S(=O)(=O)c1cccc([N+](=O)[O-])c1 (stereo not given)	0.97	-1.8
CCOC(=O)NC(Nc1cc(C)on1)(C(F)(F)F)C(F)(F)F	2	-0.66
COC(=O)Nc1cc([N+](=O)[O-])ccc1OC	1.7	-1.3
O=C(NCCOc1ccc(F)cc1)C1CCC(=O)N(CCc2ccccn2)C1 (stereo not given)	0.08	1.1

New compounds follow:
SMILES	KCNQ2 enhance	KCNQ2 enhance baseline
FC(F)(F)c1cc(-c2ccccc2)nc(N2CCOCC2)n1	1.3	-0.17
Cc1cccc2c1NC(=O)C2=Nc1ccc(Cl)cc1	0.86	-3.7
O=C(O)CCC(=O)N1N=C(c2c(-c3ccccc3)c3cc(Cl)ccc3[nH]c2=O)CC1c1ccco1 (stereo not given)	1.1	-0.25
CCc1ccc(S(=O)(=O)c2nnn3c2nc(NCCNC(C)=O)c2ccccc23)cc1	0.17	-0.21
CSc1ccc(C2NN=C(c3ccccc3)S2)cc1 (stereo not given)	2.9	-0.09
CN1CCN(C(=O)CNc2ccc(C(F)(F)F)cc2[N+](=O)[O-])CC1	0.48	0
O=C(Nc1ccc(S(=O)(=O)N2CCCCC2)cc1)C1CC(=O)N(Cc2ccccc2)C1 (stereo not given)	0.04	0.02
CCOc1cc(C2c3c(n[nH]c3C)C(=O)N2c2ccc(C)cc2)ccc1O (stereo not given)	1.1	-1
Cn1c(=O)c2c(nc(SCC(=O)Nc3ccccc3)n2C)n(C)c1=O	2.7	0.12
O=C(COC(=O)c1cccc(-n2cnnn2)c1)c1ccc(F)cc1	3.2	1.4
Cc1cccc(N=C2NC(=O)/C(=C/C=C/c3ccco3)S2)c1C	1.5	0.68
CCc1cccc(NC(=O)c2sc3nc4n(c(=O)c3c2C)CCC4)c1	0.84	-1
COC(=O)CN(c1cc(OC)ccc1OC)S(=O)(=O)c1ccc(OC)c(OC)c1	2.1	-0.8
Cn1c(N=Nc2ccccc2)nc2ccccc21	0.25	0.68
FC(F)(F)c1n[nH]c(=S)n1/N=C/c1ccco1	0.1	0.07
Cc1ccc(C23CC4CC(CC(C(N)=O)(C4)C2)C3)cc1	2	-1.2
Cc1nc(CCNS(=O)(=O)c2cccs2)cs1	1.1	-0.05
O=C(CSc1nnnn1-c1ccccc1)Nc1nc(-c2ccccc2)ns1	0.52	-1
CCOC(CNC(=O)Cc1c(C)nc2c(-c3ccccc3)c(C)nn2c1C)OCC	0.22	0
COc1ccccc1/C=N/NC(=O)CC(=O)NC1CCCCC1	0.61	-0.23
CC(=O)c1cccc(N(CC(=O)Nc2ccccc2C(=O)N2CCCC2)S(C)(=O)=O)c1	0.33	-0.94
NCCn1c(-c2ccccc2)cc(C(=O)O)c1-c1ccccc1F	0.21	0.13
O=C(COC(=O)c1ccc(Br)o1)Nc1cccc(S(=O)(=O)N2CCCCCC2)c1	1.7	-2.2
CCc1ccc(NC(=O)CSCc2nc(N)nc(Nc3ccccc3CC)n2)cc1	15*	1.7*
COc1ccc(S(=O)(=O)N2C3CCC2CC(NC(=O)NC2CCCCC2)C3)cc1 (stereo not given)	0.63	1.3

Other entries follow:
SMILES	KCNQ2 enhance	KCNQ2 enhance baseline
COC(Cn1cc(C)c(=O)[nH]c1=O)OC	0.28	-0.98
CCn1c(CSCc2ccc(Cl)cc2)nnc1SCC(=O)Nc1cccc(C(=O)O)c1	0.67	-0.53
O=C(O)CC(c1cccc2ccccc12)n1cccc1 (stereo not given)	0.02	-0.21
O=C(c1ccoc1)N1CCC2(CC1)Oc1ccc(F)cc1C(=O)C21CC(c2ccccc2)=NO1 (stereo not given)	0.18	0.45
COc1ccccc1NC(=S)NC(=O)C1CC1	0.67	0.27
COc1ccccc1NC(=S)N1CCN(C/C=C/c2ccccc2)CC1	0.19	-3.5
CCOc1ccc(-n2c(SCC(=O)N3CCc4ccccc43)nnc2-c2c[nH]c3ccccc23)cc1	0.39	-0.23
CCCN1Cc2cccc(C(=O)Nc3ccc(-c4nc5ccccc5[nH]4)cc3)c2C1=O	0.43	-0.29
CC1(C)Cc2c(sc(NC(=O)C(=O)NCCCN3CCOCC3)c2C(N)=O)CO1	0.29	-1.5
Cc1cccc(NC(=O)COC(=O)c2ccc([N+](=O)[O-])o2)c1C	0.23	-0.04
O=C(c1cc2c(=O)n3ccccc3nc2s1)N1CCc2ccccc2C1	0.32	1
O=C(Nc1ccc(Br)cc1Cl)N1CCOCC1	0.19	-0.48
O=C(Nc1cccc(NC(=O)c2cncc(Br)c2)c1)c1cncc(Br)c1	3.6	0.22
O=S(=O)(Cc1ccccc1)N1CCCC(c2nc(-c3ccc(F)cc3)no2)C1 (stereo not given)	0.88	-0.61
CCOC(=O)C1CCCCN1Cc1ccc(OC)c(OC)c1 (stereo not given)	1.6	-1.9
O=C(C1CCCO1)N1CCC(c2nc3ccccc3[nH]2)CC1 (stereo not given)	1.3	0.87
Cc1ccc(OCC(=O)Nc2ccncc2)c(C)c1	0.18	0.49
COc1ccc(N/C=C/C(=O)c2ccc(Cl)cc2)cc1	0.97	0.72
O=C1/C(=C\c2cccnc2)CCc2ccccc21	0.66	0.02
Cc1ccc2nc(-c3ccccn3)cc(C(=O)Nc3ccc(S(=O)(=O)N4CCOCC4)cc3)c2c1	0.31	-0.14
CSCC[C@H](NC(=O)c1cc2c([nH]c3ccccc32)c(-c2ccccc2)n1)C(=O)O	1.9	-0.01
Cc1cc(C(=O)N/N=C/c2cc(Br)ccc2OC(=O)c2ccccc2Cl)n[nH]1	1.3	-1.5
O=C(Nc1ccc(OCc2ccccc2)cc1)Nc1ccccc1C(=O)NCCCN1CCOCC1	0.14	-1.7
CC(C)NC(=O)c1ccc(C2SCC(=O)N2Cc2ccccc2)cc1 (stereo not given)	1.5	-0.45
O=C(O)CCn1cc(/C=C\C(=O)c2ccc(Cl)cc2)c(-c2cccc(Br)c2)n1	2.1	0.01

Pulled one by one from the list above:
SMILES	KCNQ2 enhance	KCNQ2 enhance baseline
O=C(Nc1cccc(NC(=O)c2cncc(Br)c2)c1)c1cncc(Br)c1	3.6	0.22
O=C1/C(=C\c2cccnc2)CCc2ccccc21	0.66	0.02
COc1ccccc1NC(=S)NC(=O)C1CC1	0.67	0.27
O=C(c1cc2c(=O)n3ccccc3nc2s1)N1CCc2ccccc2C1	0.32	1

Following part
SMILES	KCNQ2 enhance	KCNQ2 enhance baseline
C/C(=N/NC(=O)c1ccncc1)c1c[nH]c2ccccc12	0.14	0.02
Cc1ccc(C(C)C)c(OCC(=O)OCC(=O)NC2CCS(=O)(=O)C2)c1 (stereo not given)	0.45	-1.9
COc1ccc(C(=O)Nc2nccs2)cc1[N+](=O)[O-]	0.61	1.8
COc1cc(/C=C/C(=O)OCC(=O)Nc2ccc(S(=O)(=O)N3CCCC3)cc2)ccc1O	1.1	1.2
N#CCCCn1c(=O)oc2ccccc21	0.54	-2.2
COc1cccc(C(=O)NNC(=O)c2ccccc2)c1	0.49	1.3
O=S(=O)(Nc1ccc(-n2cccc2)cc1)c1ccccc1	1.1	-2.7
CCCc1nc2c(sc3nc4c(cc32)COC(C)(C)C4)c(=O)n1CCN(CC)CC	1.4	0.54
Cn1nc(-c2ccccc2)c2cc([N+](=O)[O-])ccc21	0.01	-1.9
O=C1CC(c2ccco2)CC(O)=C1C=NCC1NCCc2ccccc21 (stereo not given)	0.65	-0.22
CCc1ccc(NC(=O)C(=O)NNC(=O)c2cccs2)cc1	10*	-1.9*
CN(C)c1nc(C#N)nc(N(C)C)n1	1.9	-0.34
Cc1cccc(NC(=O)c2cc(S(=O)(=O)N3CCOCC3)cn2C)c1C	0.56	-1.2
Cc1c(C(=O)N2CCN(C)CC2)oc2c1C(=O)CC(C)(C)C2	0.66	0.03
Cc1ccsc1/C=N/NC(=O)C(O)c1ccccc1 (stereo not given)	1	-0.23
CCN(CC)S(=O)(=O)c1ccc(OC)c(NC(=S)Nc2cccc(C)c2C)c1	0.67	0.13
COC(=O)C1=C(C)n2cnnc2NC1c1ccc(Cl)cc1 (stereo not given)	0.06	1.5
O=C(NC(=S)Nc1ccc(Cc2ccncc2)cc1)c1ccccc1	0.95	0.74
Cc1cccc(N(Cc2cc3ccccc3[nH]c2=O)C(=O)c2cccs2)c1	0.08	1.2
Cc1ccc2c(CC(=O)NC3CCS(=O)(=O)C3)coc2c1C (stereo not given)	1.4	-0.09
CC(C)C(c1nnnn1Cc1ccc(F)cc1)N1CCSCC1 (stereo not given)	0.96	-0.05
CCNC(=S)/N=C(/Nc1ccccc1)Nc1nc(C)cc(C)n1	0.68	-1
CCOC(=O)CNC(=O)CSc1nnc(Cn2cnc3ccccc32)n1C	1.4	-1.1
CCCc1nc2oc3ccccc3c(=O)c2c(=O)n1-c1ccccc1	1.3	0
COc1ccc(C(=O)NC(C)c2nnc(SCC(=O)Nc3nc4ccccc4s3)n2C)cc1 (stereo not given)	0.7	-0.32

Next compounds.
SMILES	KCNQ2 enhance	KCNQ2 enhance baseline
COc1ccc(CCNC(=O)CSc2c[nH]c3ccccc23)cc1OC	0.04	0.73
O=C(NCc1cccs1)c1cnc2sccn2c1=O	1.6	2.2
CC(=O)c1c(C)[nH]c(C(=O)CSc2ncnc3sc(-c4ccccc4)cc23)c1C	2	0.11
COc1ccc(NC(=O)c2ccco2)cc1S(=O)(=O)N1CCCCC1	1.8	-0.4
Cc1ccccc1C(=O)N/C(=C/c1ccc(-c2cccnc2Cl)o1)C(=O)NCCCN1CCN(C)CC1	0.39	-1
C#CCNC(=O)C1=C[C@@H](C2CCCCC2)[C@H](CCCO)[C@@H](OCC)O1	1.9	0.44
CCC(=O)Nc1nc(C)nc(C)c1C(C)=O	0.91	0.49
CC(=O)c1ccc(N2CCN(S(=O)(=O)c3ccc4c(c3)NC(=O)CO4)CC2)cc1	0.66	0.75
CCN1CCCC(NC(=O)c2scc3c2CCCC3)C1 (stereo not given)	1.9	-1.3
Cc1sc(NC(=O)C2C3CCC(C3)C2C(=O)O)c(C(N)=O)c1-c1ccc(C(C)(C)C)cc1 (stereo not given)	0.49	-3.3
COc1cc(OC)c(C(=O)Nc2ncn[nH]2)cc1OC	0.6	-2.8
COc1ccc(N2CC(C(=O)Nc3ccc(N4CCOCC4)cc3)CC2=O)cc1 (stereo not given)	0.09	0.97
Cc1ccc(-c2nnc(-c3ccncc3)n2-c2ccc(C)cc2)cc1	0.04	0.04
O=C(c1ccc2c(=O)n(CC3CCCO3)c(=S)[nH]c2c1)N1CCN(c2ccccc2)CC1 (stereo not given)	0.08	0.02
COc1cccc(CNC(=S)Nc2cc(C)ccc2C)c1	0.2	0.4
O=C(c1cccc([N+](=O)[O-])c1)N1CCN(c2n[nH]c(=O)[nH]c2=O)CC1	0.6	2
CC(=O)c1ccc(S(=O)(=O)NCCC(=O)OC(C)C(=O)Nc2ccc(F)cc2)cc1 (stereo not given)	0.97	0.02
NC(=O)COC(=O)CC1CC2CCC1C2 (stereo not given)	0.02	-1.5

Five entries from above in a different format.
KCNQ2 enhance | KCNQ2 enhance baseline | structure
0.04 | 0.04 | Cc1ccc(-c2nnc(-c3ccncc3)n2-c2ccc(C)cc2)cc1
0.66 | 0.75 | CC(=O)c1ccc(N2CCN(S(=O)(=O)c3ccc4c(c3)NC(=O)CO4)CC2)cc1
0.02 | -1.5 | NC(=O)COC(=O)CC1CC2CCC1C2 (stereo not given)
0.39 | -1 | Cc1ccccc1C(=O)N/C(=C/c1ccc(-c2cccnc2Cl)o1)C(=O)NCCCN1CCN(C)CC1
0.6 | 2 | O=C(c1cccc([N+](=O)[O-])c1)N1CCN(c2n[nH]c(=O)[nH]c2=O)CC1
